PABP FP inh = blocks human PABP binding to poly(A) RNA; fluorescence polarization; inhibition, % at 35 µM; actives 1% (n = 290,000); AID 2014;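 active means 50% or more with normal probe brightness, or confirmed in later tests; about a fifth of its hits are not listed in these tables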;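 further: calls also rest on retests at 20 µM and on dose response follow-up; controls were probe without protein and protein plus probe with vehicle; some compounds called inactive have numbers as strong as hits; many hits fall short of the cut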
Env fusion inh = HIV envelope-mediated fusion inhibition | HeLa-JRFL Env/CEM21 cell fusion, luciferase | inhibition, % at 12.3 µM | actives 1.1% (n = 360,000);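 active means mean replicate inhibition score of at least 50 and every replicate individually at or above 50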;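 further: 0% = plate neutral controls and 100% = maraviroc near 300 nM; one replicate is shown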
eIF4H FP inh = inhibitors of RNA binding by human eIF4H; Q15056; eIF4H fluorescence polarization binding assay; inhibition, % at 35 µM; actives 0.94% (n = 290,000); AID 2012;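 active means 50% or more with normal probe brightness, or confirmed in later tests; about a fifth of its hits are not listed in these tables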;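 further: calls also rest on retests at 20 µM and on dose response follow-up; 0% = protein and probe with vehicle and 100% = probe without protein; strong numbers were not always called active; many hits fall short of the cut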
MT1-MMP act inh = MT1-MMP (human) activation inhibition; P50281; HT1080 RFP-PRO-GFP cells, GFP/RFP ratio fluorescence, overnight; percent of plate control window, DMSO zero; GFP/RFP ratio change, % at 20 µM; actives 0.061% (n = 360,000);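 active means GFP/RFP ratio change of at least 30% with cell ATP level not reduced by more than half and red fluorescence within 50% of control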; further: strong numbers were not always called active
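Material – HT1080 RFP-PRO-GFP cells · Control set – DMSO wells and RFP-L50D-GFP cells · Incubation – overnight cell settling, then overnight compound exposure, 37 °C, 5% CO2 · Compound dosing – single-point 20 µM compound, 1% DMSO · Read-out – GFP/RFP fluorescence ratio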
Yeast UUG start = alters start codon recognition fidelity in yeast; S. cerevisiae UUG-firefly luciferase reporter, luminescence/redox ratio; activity score, % at 18.7 µM; actives 0.13% (n = 350,000);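 active means replicate mean at a twofold rise or more, about +100% in these data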;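 further: firefly luciferase made from a UUG start codon reports start codon fidelity; reporter light over untreated wells divided by growth signal over untreated wells; some hits fall short of that in this replicate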
CSC inhib = blocks cancer stem cells; cancer stem cell-like cells viability, luminescence; inhibition, % at 7.5 µM; actives 1.1% (n = 300,000); AID 2717;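 active means mean at 75% or more and at least half the replicates too; tested in HMLE shEcad cells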;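 further: 0% = median of negative and 100% = median of positive control wells; the first replicate is given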
Rce1 inh = inhibitors of yeast Ras-converting enzyme; Q03530; yeast membranes, quenched prenylated peptide cleavage fluorescence; calls only; actives 0.27% (n = 290,000); AID 2563;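 active means fall in fluorescence gain of 50% or more versus controls, with final raw signal at or below 3038400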;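 further: plate controls were neutral control wells for no effect and wells lacking membranes for full effect; tested at 10 µM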
Target sequence (Q03530 whole entry, looked up): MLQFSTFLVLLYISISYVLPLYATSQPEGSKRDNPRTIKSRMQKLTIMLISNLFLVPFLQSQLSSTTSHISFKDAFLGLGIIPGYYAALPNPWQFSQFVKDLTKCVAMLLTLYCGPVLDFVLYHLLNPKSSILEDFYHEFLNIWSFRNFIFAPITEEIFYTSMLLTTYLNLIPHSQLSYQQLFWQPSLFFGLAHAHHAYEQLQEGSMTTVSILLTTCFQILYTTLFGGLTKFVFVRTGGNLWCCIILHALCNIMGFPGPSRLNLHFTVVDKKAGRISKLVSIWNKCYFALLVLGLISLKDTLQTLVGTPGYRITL
eIF4H FP inh retest = recorded beside eIF4H FP inh, whose call it bears; inhibition, %; compound at 20 µM; confirmation average;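 mean of two retest wells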
PABP FP inh retest = recorded beside PABP FP inh, whose call it bears; inhibition, %; compound at 20 µM; confirmation repeats;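 mean of two retest wells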
MT1-MMP act inh RFP = further read-out of MT1-MMP act inh, marked with its call; RFP signal change, %; measured here: RFP expression control read;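 0 = vehicle wells; hits needed this value within 50% of zero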
* = called active by the depositor. The order is random (roughly 2.9% active in at least one column).

COc1ccc(N2C(=O)C3CCCN3C2c2ccc(Cl)cc2)cc1 (stereo unspecified) was read as PABP FP inh 4, Env fusion inh -7, eIF4H FP inh 4, MT1-MMP act inh -3, Yeast UUG start -9, CSC inhib -22, Rce1 inh inactive and MT1-MMP act inh RFP 2.
`CCOc1cccc(/C=N/NC(=O)c2ccc3c(c2)OCCO3)c1O` gave PABP FP inh 0, Env fusion inh 45, eIF4H FP inh 16, MT1-MMP act inh 2, Yeast UUG start -13, CSC inhib 28, Rce1 inh inactive and MT1-MMP act inh RFP -1.
COCCn1nnnc1C(c1cc2cc(C)ccc2[nH]c1=O)N1CCCCCC1 (stereo unspecified) was read as PABP FP inh 52, eIF4H FP inh 0, MT1-MMP act inh 1, Yeast UUG start -6, CSC inhib 3, Rce1 inh inactive, eIF4H FP inh retest 6, PABP FP inh retest 23 and MT1-MMP act inh RFP 5.
For Cc1cccc(Cn2ccc(-c3ccc(Cl)cc3)c(C#N)c2=O)c1 the results were PABP FP inh -11, eIF4H FP inh -4, MT1-MMP act inh 1, Yeast UUG start -12, CSC inhib -11, Rce1 inh inactive and MT1-MMP act inh RFP -2.
Screening O=C(NCCCN1CCN(c2ccc(F)cc2)CC1)Nc1ccc([N+](=O)[O-])cc1 returned PABP FP inh 7, Env fusion inh 30, eIF4H FP inh -1, MT1-MMP act inh -3, Yeast UUG start -2, CSC inhib 4, Rce1 inh inactive and MT1-MMP act inh RFP -10.
CCC1=NN(C(=O)Cc2ccc([N+](=O)[O-])cc2)C(O)(c2ccc(Br)cc2)C1 (stereo unspecified) was read as PABP FP inh -10, Env fusion inh -7, eIF4H FP inh 5, MT1-MMP act inh 17, Yeast UUG start -8, CSC inhib 1, Rce1 inh inactive and MT1-MMP act inh RFP -5.
O=C(C1CCC(=O)N(C2CC2)C1)N1CCN(c2ccc(Cl)cc2)CC1 (stereo unspecified) was read as PABP FP inh 5, Env fusion inh -1, eIF4H FP inh 0, MT1-MMP act inh -1, Yeast UUG start -8, CSC inhib 0, Rce1 inh inactive and MT1-MMP act inh RFP -3.
For Nc1nnn(CC(=O)N/N=C/c2cccc3ccccc23)n1 the results were PABP FP inh -5, eIF4H FP inh -2, MT1-MMP act inh 5, CSC inhib 4, Rce1 inh inactive and MT1-MMP act inh RFP 5.
Screening NS(=O)(=O)c1ccc(NC(=O)CN2CCCN(S(=O)(=O)c3ccc(F)cc3)CC2)cc1 returned PABP FP inh -5, Env fusion inh -5, eIF4H FP inh -2, MT1-MMP act inh 0, CSC inhib 0, Rce1 inh inactive and MT1-MMP act inh RFP -2.
O=C(CSCc1ccc(Cl)cc1Cl)Nc1ccccc1C(=O)Nc1ccc(C(=O)O)cc1 was read as PABP FP inh -14, Env fusion inh 12, eIF4H FP inh -10, MT1-MMP act inh 1, CSC inhib -7, Rce1 inh inactive and MT1-MMP act inh RFP 1.
Screening NC(=O)C1(N2CCCCC2)CCN(C(=O)NC23CC4CC(CC(C4)C2)C3)CC1 returned PABP FP inh -4, Env fusion inh -8, eIF4H FP inh -1, MT1-MMP act inh -2, Yeast UUG start -2, CSC inhib -16, Rce1 inh inactive and MT1-MMP act inh RFP 1.
For COc1cccc(C(=O)Nc2cc3c4c(c2)CC(=O)N4CCC3)c1 the results were Env fusion inh -49, MT1-MMP act inh -3, Yeast UUG start -11, CSC inhib 0, Rce1 inh inactive and MT1-MMP act inh RFP 3.
`COc1ccc(OC)c(NC(=S)N2CCc3ccccc3C2)c1` gave PABP FP inh 6, Env fusion inh -3, eIF4H FP inh 18, MT1-MMP act inh -6, CSC inhib 1, Rce1 inh inactive and MT1-MMP act inh RFP -4.
For CSCCC(NC(=O)c1ccccc1)C(=O)NC1CC1 (stereo unspecified) the results were PABP FP inh -7, Env fusion inh -110, eIF4H FP inh -1, MT1-MMP act inh 0, Yeast UUG start -12, CSC inhib -6, Rce1 inh inactive and MT1-MMP act inh RFP 1.
`COc1ccc(-c2cc(C(=O)NCCCn3ccnc3)c3ccccc3n2)c(OC)c1` gave PABP FP inh -6, Env fusion inh 1, eIF4H FP inh -8, MT1-MMP act inh -2, Yeast UUG start -14, CSC inhib 14, Rce1 inh inactive and MT1-MMP act inh RFP 1.
`CC(C)c1onc(C(=O)NCc2ccc(Cl)cc2)c1[N+](=O)[O-]` gave PABP FP inh -4, eIF4H FP inh 1, MT1-MMP act inh -6, CSC inhib -3, Rce1 inh inactive and MT1-MMP act inh RFP 3.
Screening CS(=O)(=O)N1CCc2cc(C(=O)NC3CC3)ccc21 returned PABP FP inh -1, Env fusion inh -5, eIF4H FP inh -12, MT1-MMP act inh 7, CSC inhib 3, Rce1 inh inactive and MT1-MMP act inh RFP -1.
`Cc1ccc(C(=O)N/N=C\c2ccccn2)cn1` gave PABP FP inh 3, Env fusion inh 0, eIF4H FP inh 8, MT1-MMP act inh 2, CSC inhib -7, Rce1 inh inactive and MT1-MMP act inh RFP 6.
COc1cccc(C(=O)NCC(=O)N2CCC(C)CC2)c1 was read as PABP FP inh -7, eIF4H FP inh -4, MT1-MMP act inh 1, Yeast UUG start -18, CSC inhib -6, Rce1 inh inactive and MT1-MMP act inh RFP -5.
For O=C(COC(=O)c1cccnc1Cl)c1ccc(OC(F)F)cc1 the results were PABP FP inh 6, Env fusion inh -6, eIF4H FP inh -8, MT1-MMP act inh 1, Yeast UUG start -16, CSC inhib -3, Rce1 inh inactive and MT1-MMP act inh RFP 4.
`COC(=O)C(CC(C)C)N(Cc1cc(OC)cc(OC)c1)S(=O)(=O)c1ccccc1Br` (stereo unspecified) gave Env fusion inh 59*, MT1-MMP act inh -6, Yeast UUG start 0 and MT1-MMP act inh RFP -8.
Screening COc1ccc(C(=O)COC(=O)CCCN=C2NS(=O)(=O)c3ccccc32)c(OC)c1 returned Env fusion inh -11, MT1-MMP act inh -1, CSC inhib 9, Rce1 inh inactive and MT1-MMP act inh RFP -1.
`CC(=O)c1c(C)nc(-c2cccc([N+](=O)[O-])c2)n1O` gave PABP FP inh -9, Env fusion inh 12, eIF4H FP inh -15, MT1-MMP act inh -3, CSC inhib -5, Rce1 inh inactive and MT1-MMP act inh RFP -2.
For COC(=O)c1ccccc1NC(=O)C1CCCO1 (stereo unspecified) the results were PABP FP inh 2, Env fusion inh 8, eIF4H FP inh -4, MT1-MMP act inh 2, Yeast UUG start 6, CSC inhib 6, Rce1 inh inactive and MT1-MMP act inh RFP 0.
CCn1c(=O)c2ccccc2n(Cc2ccccc2C)c1=O was read as PABP FP inh 4, Env fusion inh 11, eIF4H FP inh 8, MT1-MMP act inh 7, Yeast UUG start -11, CSC inhib -9, Rce1 inh inactive and MT1-MMP act inh RFP 2.
Screening Cc1ccc(Cl)cc1N1CCN(Cc2cc3c(cc2O)CCC3)CC1 returned PABP FP inh -2, Env fusion inh -9, eIF4H FP inh -2, MT1-MMP act inh 2, Yeast UUG start -4, CSC inhib 37, Rce1 inh inactive and MT1-MMP act inh RFP 1.
`CCN(CC)CCNC(=O)C(=O)Nc1cc2c3c(c1)CC(=O)N3CCC2` gave PABP FP inh -6, Env fusion inh -7, eIF4H FP inh 6, MT1-MMP act inh 1, Yeast UUG start 2, CSC inhib 2, Rce1 inh inactive and MT1-MMP act inh RFP 4.
Screening C=CCN(c1ccccc1)S(=O)(=O)c1cccc(C(=O)Nc2ccc(N3CCOCC3)cc2)c1 returned Env fusion inh 2, MT1-MMP act inh 1, Yeast UUG start -22 and MT1-MMP act inh RFP -18.
`CCNC(=S)NNC(=O)CCn1cc(C)cn1` gave PABP FP inh -4, Env fusion inh 2, eIF4H FP inh 5, MT1-MMP act inh -8, Rce1 inh active and MT1-MMP act inh RFP 2.
Screening COc1ccc(CCNC(=O)[C@H](C)NC(=O)N2CCn3c2nc2ccccc23)cc1OC returned PABP FP inh 0, Env fusion inh -3, eIF4H FP inh -3, MT1-MMP act inh 2, Yeast UUG start -17, CSC inhib -7, Rce1 inh inactive and MT1-MMP act inh RFP 0.
`COc1ccc(-c2cc(C(=O)OC3CCOC3=O)c3ccccc3n2)cc1` (stereo unspecified) gave PABP FP inh -5, Env fusion inh 2, eIF4H FP inh 2, MT1-MMP act inh 3, Yeast UUG start -14, CSC inhib 3, Rce1 inh inactive and MT1-MMP act inh RFP -2.
For C/C(=N\O)c1ccc2c3c([nH]c2c1)CCCC3 the results were PABP FP inh 26, eIF4H FP inh 14, MT1-MMP act inh -8, Yeast UUG start -18, CSC inhib -5, Rce1 inh inactive and MT1-MMP act inh RFP -10.
`N#CCSc1nc2c(c(=O)n1Cc1ccccc1)C1(CCCC1)Cc1ccccc1-2` gave PABP FP inh -12, eIF4H FP inh -7, MT1-MMP act inh -4, Yeast UUG start -8, CSC inhib 11, Rce1 inh inactive and MT1-MMP act inh RFP -12.
For CCOc1cc(/C=C2/C(=N)N3C=CSC3=NC2=O)ccc1OCCCOc1ccccc1C the results were PABP FP inh 19, eIF4H FP inh 19, MT1-MMP act inh -2, Yeast UUG start -20, Rce1 inh inactive and MT1-MMP act inh RFP -4.
Screening Cc1c(Nc2nc3ccccc3nc2NS(=O)(=O)c2ccccc2)c(=O)n(-c2ccccc2)n1C returned PABP FP inh 17, eIF4H FP inh -13, MT1-MMP act inh 0, Yeast UUG start -13, CSC inhib -11, Rce1 inh inactive and MT1-MMP act inh RFP -1.
COC(=O)c1cc2occc2n1Cc1nc(-c2ccccc2Cl)oc1C was read as PABP FP inh 8, Env fusion inh 17, eIF4H FP inh 8, MT1-MMP act inh 0, Yeast UUG start -3, CSC inhib 4, Rce1 inh inactive and MT1-MMP act inh RFP -1.
Screening CCOc1ncccc1C(=O)OCC(=O)c1ccc[nH]1 returned PABP FP inh 9, Env fusion inh -26, eIF4H FP inh -1, MT1-MMP act inh -9, Yeast UUG start -5, CSC inhib -17, Rce1 inh inactive and MT1-MMP act inh RFP 0.
Screening COC(=O)Cn1nc(-c2ccccc2)c2cc(Cl)ccc21 returned PABP FP inh -6, Env fusion inh -15, eIF4H FP inh -9, MT1-MMP act inh 0, Yeast UUG start -5, CSC inhib -3, Rce1 inh inactive and MT1-MMP act inh RFP 2.
For O=C(COc1ccc(Nc2ccccc2)cc1)Nc1ccncc1 the results were Env fusion inh 1, MT1-MMP act inh -2, Yeast UUG start -22, CSC inhib 13, Rce1 inh inactive and MT1-MMP act inh RFP -25.
N#Cc1ccc(-c2ccc(Cl)cc2)nc1Oc1ccc(F)cc1 was read as PABP FP inh 5, Env fusion inh -2, eIF4H FP inh -12, MT1-MMP act inh 1, Yeast UUG start -12, CSC inhib -2, Rce1 inh inactive and MT1-MMP act inh RFP -6.
For CCCS(=O)(=O)N1CCCC(C(=O)c2ccccc2OC)C1 (stereo unspecified) the results were PABP FP inh 8, Env fusion inh 10, eIF4H FP inh -5, MT1-MMP act inh 0, CSC inhib 3, Rce1 inh inactive and MT1-MMP act inh RFP 1.
Screening O=C1CCCC(=O)C1C(=O)C1CCN(S(=O)(=O)c2ccccc2)CC1 returned PABP FP inh 11, Env fusion inh -5, eIF4H FP inh 2, MT1-MMP act inh -3, CSC inhib 0, Rce1 inh inactive and MT1-MMP act inh RFP 1.
`O=C(NC1=NCCS1)C1CC2CCC1C2` (stereo unspecified) gave PABP FP inh -3, Env fusion inh -41, eIF4H FP inh -5, MT1-MMP act inh 1, Yeast UUG start -6, CSC inhib -15, Rce1 inh inactive and MT1-MMP act inh RFP 5.
